Screens: PubChem BioAssay, National Center for Advancing Translational Sciences (NCATS)
ClpP mod: qHTS Assay for Activators of ClpP. ATP-dependent Clp protease proteolytic subunit (Bacillus subtilis (strain 168)), P80244. AID 651965, 2013. Potency, µM (doses to about 57.5 µM), for the others: at the highest dose activity change, negative = active. purified B. subtilis ClpP, FRET peptide cleavage, 20 min. 1.9% of 340,000 active; active = well fitted falling curve with a large enough effect; inconclusive = small, poorly fitted or top-dose-only effect; inactive = no such curve, though single readings can be large or run the other way; note: potency is the fitted concentration of half-maximal effect; the source files actives as falling curves though it sought activators and does not explain the sign; nearly all actives have a fitted effect of over 65% in size; many hits overshoot -100%
Target sequence (P80244 whole entry, looked up): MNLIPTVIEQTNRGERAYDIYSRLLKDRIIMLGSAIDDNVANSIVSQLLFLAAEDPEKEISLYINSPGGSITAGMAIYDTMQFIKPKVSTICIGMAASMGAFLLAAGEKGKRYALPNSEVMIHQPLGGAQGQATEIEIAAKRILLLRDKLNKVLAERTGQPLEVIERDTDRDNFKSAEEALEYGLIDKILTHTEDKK
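Purified B. subtilis ClpP, 10 microg/mL final in Tris/HCl pH8 with KCl, BSA, glycerol and Tween-20, cleaved an Abz/nitrotyrosine-quenched decapeptide. Fluorescence (ex 320, em 430) was read at 0 and 20 min at room temperature. Delta was normalized to 5.8 microM ADEP and DMSO/no-enzyme controls.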
Menin MLL FP FL: displaces fluorescein MLL peptide from human menin | FP activity change, % at 61.4 µM | Fluorescence polarization, fluorescein-MLL peptide displacement from menin | 290,000 tested, under 10 active; inconclusive = falling polarisation curve, or a change in total fluorescence; inactive = total fluorescence flat and polarisation flat or rising; no compound was filed as active; the % refers to the polarisation; negative = inhibition;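 note: % of control where 0% means no effect; inhibitors lower the polarisation; unlabelled MLL peptide was the positive control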
gsp ag: gsp mutant agonism. 0.13% of 340,000 active. Potency, µM (top dose mostly 76.9 µM), for inactives: at the top dose activation (cAMP increase), usual class: activators. gsp mutant cells, cAMP HTRF, 30 min; control for the full effect not named in the record; active = well fitted activation curve with a large enough effect; inconclusive = small, poorly fitted or top-dose-only effect, or another doubt; inactive = no such curve, though single readings can be large or run the other way; cell line not stated here;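 note: phosphodiesterase inhibitor Ro 20-1724 added with compounds to block cAMP breakdown; potency is the fitted concentration of half-maximal effect; nearly all actives have a fitted effect of over 60% in size; about a fifth of the inactives were tested at one dose only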
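Cells in DMEM/10% FBS with G418 were pretreated with compounds in DMSO plus […] (300 uM stock) for 30 min at 37C. cAMP was measured by HTRF (cAMP-d2 plus anti-cAMP antibody-K) after 30 min at room temperature.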
CtBP-E1A blk: blocks the CtBP interaction with E1A; AlphaScreen GST-E1A/His-CtBP binding, 1536-well; hits give low values; control for the full effect not named in the record; activity change, % (test concentration not listed); 0.49% of 340,000 active; AID 651724; in the data active means activity change below about -65%; inconclusive means about -30% to -65%; inactive means above about -30%; note: % is set by controls: 0 for no effect and ±100 for the full control effect; compound concentration not given in the record
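Protein mix (5X: 125 nM each GST-E1A, His-CtBP) was incubated with pinned compound 2 h at 37 deg C in dark, in 50 mM Tris pH 8.0 buffer with 300 mM NaCl. Glutathione donor and nickel acceptor beads followed; AlphaScreen signal read after 1 h.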
gsp antagonist: antagonists of gsp mutant (McCune-Albright syndrome) | Potency, µM (series often up to 76.9 µM), inactives show at the highest dose activity change, negative = inhibition, most hits filed as inhibitors | gsp-mutant cells, cAMP HTRF, 30 min; control for the full effect not named in the record | AID 624288 | 0.4% of 340,000 active; active = falling curve of any shape with a large fitted effect; inconclusive = falling curve, mostly with a smaller effect; inactive = flat or rising curve; cell line not stated here;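 note: intracellular cAMP measured with PDE inhibitor Ro 20-1724 present during compound exposure; potency is the fitted concentration of half-maximal effect; % is set by controls: 0 for no effect and ±100 for the full control effect; nearly all actives have a fitted effect of over 65% in size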
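HTRF cAMP read-out (cAMP-d2 plus anti-cAMP antibody-K in lysis buffer, 30 min RT). Before lysis, cells are exposed to compounds with […] for 30 min at 37C in DPBS containing Ca/Mg, BSA and Tween 20.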
Sfp PPTase inh: Sfp phosphopantetheinyl transferase inhibition; Q9F4F7; Biochemical Sfp PPTase activity, qHTS; Potency, µM, inactives show max response, negative = inhibition, most hits filed as inhibitors; 3.5% of 310,000 active; AID 1490; active = well fitted inhibition curve with a large enough effect; inconclusive = small, poorly fitted or top-dose-only effect, or another doubt; inactive = no such curve, though single readings can be large or run the other way;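 note: the enzyme is Sfp with the accession as filed and its product quenches rhodamine fluorescence; potency is the fitted concentration of half-maximal effect; 0% = enzyme reaction without inhibitor and -100% = no enzyme wells; top concentration of the series not given in the record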
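After 15 min at room temperature with compound, 15 nM Sfp received 5 uM rhodamine-CoA plus 12.5 uM BHQ-2-ybbR (50 mM Hepes pH 7.6, 10 mM MgCl2). Rate came from the fluorescence difference over 30 min, ex 525/em 598 nm.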
TRPV1 potentiator: potentiators of human vanilloid receptor 1 (TRPV1) | 0.02% of 320,000 active | TRPV1-expressing cells, Fluo-8 calcium influx, capsaicin EC20 potentiation; host cell line not named in the record; control for the full effect not named in the record | potentiation, % at 8.33 µM | Q8NER1; active means potentiation above 80%; inconclusive means 30% to 80%; inactive means below 30%; note: 0% is about no effect
Target sequence (Q8NER1 whole entry, looked up): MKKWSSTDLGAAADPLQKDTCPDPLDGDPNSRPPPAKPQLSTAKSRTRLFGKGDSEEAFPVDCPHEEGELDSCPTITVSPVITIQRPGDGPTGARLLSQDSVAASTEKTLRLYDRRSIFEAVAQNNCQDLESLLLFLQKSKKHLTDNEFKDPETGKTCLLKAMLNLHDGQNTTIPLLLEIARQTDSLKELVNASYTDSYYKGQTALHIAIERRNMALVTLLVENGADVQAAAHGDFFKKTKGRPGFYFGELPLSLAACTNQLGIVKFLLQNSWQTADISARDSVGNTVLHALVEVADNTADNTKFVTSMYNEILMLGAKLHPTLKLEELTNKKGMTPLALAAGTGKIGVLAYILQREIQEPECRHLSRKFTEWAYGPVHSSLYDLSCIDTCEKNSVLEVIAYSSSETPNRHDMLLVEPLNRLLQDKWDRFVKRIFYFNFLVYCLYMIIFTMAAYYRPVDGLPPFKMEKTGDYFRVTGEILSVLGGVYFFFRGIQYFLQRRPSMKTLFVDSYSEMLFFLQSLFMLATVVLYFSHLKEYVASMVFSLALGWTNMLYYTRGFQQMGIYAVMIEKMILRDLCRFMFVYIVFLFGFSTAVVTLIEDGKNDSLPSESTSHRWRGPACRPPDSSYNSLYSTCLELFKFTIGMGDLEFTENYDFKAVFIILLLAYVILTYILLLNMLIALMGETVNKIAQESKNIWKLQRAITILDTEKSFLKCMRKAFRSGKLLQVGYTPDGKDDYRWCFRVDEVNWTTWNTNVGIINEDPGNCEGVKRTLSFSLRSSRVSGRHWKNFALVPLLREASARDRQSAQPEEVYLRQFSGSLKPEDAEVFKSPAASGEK
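Fluo-8 calcium influx in TRPV1-expressing cells, kinetic read (ex 480/em 520 nm). Compound added and read 3 min for agonist activity, followed by capsaicin at EC20 final and 2 min further read for enhancement.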
An asterisk follows results filed as active; ? = inconclusive; / = not tested or not shown; [ ] = another dose, or the depositor's remark.

canonical_smiles	gsp antagonist	Sfp PPTase inh	TRPV1 potentiator	ClpP mod	CtBP-E1A blk	Menin MLL FP FL	gsp ag
Cc1ccc(O)c(/C=N/NC(=O)c2[nH]ncc2Br)c1	-12%	0%	18	2.0%	18	5.4	-27%
Cc1cc(C(=O)N/N=C/c2ccc([N+](=O)[O-])s2)c2ccccc2n1	1%	-1%	-3	-1.6%	-21	/	?
O=C1NC(=S)N/C1=C/c1cc([N+](=O)[O-])ccc1O	-9%	?	7	4.8%	-13	?	7%
O=C(Cc1ccccc1)N1CCNCC1	11%	19%	17	/	9	0.9	-6%
COc1cccc(/C=N/NC(=O)c2ccccc2)c1OS(=O)(=O)c1ccccc1	-27%	4%	-18	0.7%	/	9.1	-4%
O=C(CN1CCN(c2ncccn2)CC1)Nc1ccccc1C(F)(F)F	3%	-3%	10	/	5	0.8	-3%[15.4 µM]
Cc1cc(C)c(S(=O)(=O)NCCc2ccccc2)c(C)c1	-4%	-7%	5	/	-12	0.9	-1%[15.4 µM]
COC(=O)c1ccc(-c2noc(CN(C)CC3CCCCO3)n2)cc1 (stereo not given)	12%	-7%	-7	/	-1	-0.4	?
CCOC(=O)Cn1c(=O)oc2cc(S(=O)(=O)N3CCCC(C(=O)OCC)C3)ccc21 (stereo not given)	-3%	12%	29	-2.1%	-2	1.3	-2%
CCCCC1C2C(=O)N(c3ccc(C)cc3)C(=O)C2ON1c1ccccc1 (stereo not given)	0%	11%	-6	2.9%	/	-0.2	25%
CCOC(=O)c1c(NC(=O)CSc2nnc(CNc3ccc(F)cc3)o2)sc(C)c1C	-17%	-8%	6	2.0%	-11	-7.6	5%
Cc1cc(C)nc(Sc2ncnc(N)c2[N+](=O)[O-])n1	/	50µM*	10	/	0	-5.1	-14%[15.4 µM]
Cc1ccc(C2OCC(C)([N+](=O)[O-])CO2)cc1 (stereo not given)	3%	/	/	/	4	/	1%
O=C(NCC1CCCCC1)c1cc(S(=O)(=O)N2CCOCC2)ccc1F	-14%	/	-26	1.2%	6	/	-44%[inhibitor]
O=C(CC(C(=O)O)c1ccc(F)cc1)c1ccc(Cl)cc1 (stereo not given)	-18%	8%	-15	/	5	-5.7	26%
C=CCOC(=O)C1=C[C@@H](c2ccc(C(F)(F)F)cc2)C[C@@H](OCCCCO)O1	5%	/	/	0.0%	0	/	/
COc1ccc(CN2C(=O)NC3(CCCCC3)C2=O)cc1F	4%	23%	11	-0.1%	0	5.1	2%
N/C(=N\OC(=O)COc1ccc(Cl)cc1Cl)c1ccncc1	-9%	-9%	20	0.0%	8	0.3	-2%
COc1ccc(N2CCN(C(c3cc(OC)ccc3OC)c3nnnn3Cc3ccco3)CC2)cc1 (stereo not given)	5%	-15%	3	-8.1%	-24	0.9	1%
Cc1ccc(C(=O)N2CCSCC2)cc1	2%	8%	0	1.3%	4	-3.5	33%

By substructure: the entries above with a thiophene ring, fused or not
canonical_smiles	gsp antagonist	Sfp PPTase inh	TRPV1 potentiator	ClpP mod	CtBP-E1A blk	Menin MLL FP FL	gsp ag
Cc1cc(C(=O)N/N=C/c2ccc([N+](=O)[O-])s2)c2ccccc2n1	1%	-1%	-3	-1.6%	-21	/	?
CCOC(=O)c1c(NC(=O)CSc2nnc(CNc3ccc(F)cc3)o2)sc(C)c1C	-17%	-8%	6	2.0%	-11	-7.6	5%

Carrying on.
canonical_smiles	gsp antagonist	Sfp PPTase inh	TRPV1 potentiator	ClpP mod	CtBP-E1A blk	Menin MLL FP FL	gsp ag
CCOc1ccccc1NC(=O)CN1C(=O)CSC(C)C1=O (stereo not given)	13%	-25%	1	0.7%	14	-5.0	-6%[15.4 µM]
CCCCn1c(CCC(=O)O)nc2cc(S(=O)(=O)N(C)C)ccc21	4%	13%	-4	-16%	1	-2.6	4%[15.4 µM]
CCOC(=O)C1=C(C)NC(=O)NC1	4%[15.4 µM]	12%	-17	-2.4%	9	-2.5	1%
Cc1nnc(SCC(=O)Nc2nc(C(C)(C)C)cs2)s1	-1%	23%	2	-1.7%	9	-0.3	-23%
CC/C(=N\NC(=O)c1csc(C)c1C)c1cccs1	?	17%	-13	0.6%	3	-0.1	0%
COCCn1c(Cc2ccccc2)nnc1SCC(=O)NC1CCCCC1	6%	15%	18	/	-14	-1.8	-38%[inhibitor]
COCCCN=C(c1ccco1)n1c(=S)nc(-c2ccco2)n(CCCOC)c1=S	-5%	11µM*	-10	-5.1%	-14	2.8	19%
Cc1ccc(/C(N)=N/OC(=O)c2ccc3c(c2)OCO3)cc1	18%	26%	-36	?	0	/	-4%[15.4 µM]
O=C(O)C(F)=C(c1ccccc1)c1ccccc1	-1%	/	/	/	0	/	?
CC(C)C[C@H](NC(=O)c1[nH]cnc1C(=O)Nc1ccc(CNC(=O)OC(C)(C)C)cc1)C(=O)OCc1ccccc1	-14%	14%	7	?	-8	-6.6	-11%
CC(C)Cc1nc2n[nH]c(N)c2c2c1CCCC2	1%	9%	6	0.6%	-2	-4.4	16%
NS(=O)(=O)c1ccc(CNC(=O)c2cc(=O)c3cc(Cl)ccc3o2)cc1	11%	10%	3	1.3%	6	0.8	-9%
COc1ccc(CNC(=O)c2cnn3c(C(F)F)cc(C)nc23)cc1	18%	2%	-3	-0.7%	-2	3.4	3%
Cc1ccc(-c2ccc(CCC(=O)O)n2-c2ccc(O)cc2)cc1	-9%	-1%	5	-14%	1	5.1	-5%
O=C(CCCO)N/N=C/c1ccccc1[N+](=O)[O-]	-8%	-3%	28	0.7%	1	8.3	-12%
Cc1cc(Br)ccc1-n1[nH]c(C)c(C=Nc2cccc3nsnc23)c1=O	/	-21%	20	/	-16	?	7%[15.4 µM]
CC(=O)N1CCN(S(=O)(=O)c2ccc(S(=O)(=O)N3CCCC(C)C3)cc2)CC1 (stereo not given)	21%	14%	5	/	-13	/	-7%[15.4 µM]
Cn1c(=O)[nH]c(=O)c2c1nc(N1CCCCCC1)n2CCCSc1nc2ccccc2o1	2%	-10%	-5	-26%	-10	6.8	-35%[inhibitor]
CCC1(CC)C(=O)N(C)C(=O)NC1=Nc1ccccc1	1%	16%	11	-11%	6	1.9	-9%
COCc1c(C(=O)Nc2cccc(S(=O)(=O)N3CCCCC3)c2)oc2ccccc12	-5%	/	/	-1.9%	-16	/	-4%[15.4 µM]

Record cards (already shown).
Listed for COCc1c(C(=O)Nc2cccc(S(=O)(=O)N3CCCCC3)c2)oc2ccccc12 → gsp antagonist: -5%; Sfp PPTase inh: /; TRPV1 potentiator: /; ClpP mod: -1.9%; CtBP-E1A blk: -16; Menin MLL FP FL: /; gsp ag: -4%[15.4 µM]
Listed for Cc1cc(Br)ccc1-n1[nH]c(C)c(C=Nc2cccc3nsnc23)c1=O → gsp antagonist: /; Sfp PPTase inh: -21%; TRPV1 potentiator: 20; ClpP mod: /; CtBP-E1A blk: -16; Menin MLL FP FL: ?; gsp ag: 7%[15.4 µM]

Next results:
canonical_smiles	gsp antagonist	Sfp PPTase inh	TRPV1 potentiator	ClpP mod	CtBP-E1A blk	Menin MLL FP FL	gsp ag
COC(=O)c1cc2ccccc2c([N+](=O)[O-])c1O	0%	/	/	/	-1	/	-19%
O=C(CSc1nc2ccc(NC(=O)CSc3nnnn3Cc3ccccc3)cc2s1)Nc1ccccc1	-9%	-6%	15	-0.9%	2	2.9	-39%[inhibitor]
Cc1cc([N+](=O)[O-])ccc1N1C(=O)c2ccc(C(=O)Nc3ccccc3C(=O)O)cc2C1=O	?	13%	-3	0.2%	/	0.8	-6%
CCC(C)[C@H](NC(=O)C1CCC(CNC(=O)[C@@H]2CCCN2C(=O)OC(C)(C)C)CC1)C(=O)O (stereo not given in full)	0%	11%	28	/	2	7.9	-18%
CCCCNC(=O)CSc1nc(CCC)nc2ccccc12	12%	-11%	-31	2.1%	6	-3.0	?
Cc1ccc(C)c(NC(=O)CN(C)C(=O)Cc2ccc(Cl)cc2Cl)c1	-1%	4%	3	/	-23	11	-35%[inhibitor]
CCOC(=O)C1=C(COC(=O)c2cccs2)NC(=O)NC1C (stereo not given)	0%	/	-10	-2.4%	-1	/	19%
CCOc1cc(OCC)cc(C(=O)Nc2cccnc2)c1	1%	9%	-26	0.3%	-2	2.1	-24%
COC(=O)CC1=NC(=O)CS1	6%[15.4 µM]	-3%	1	-2.0%	-3	1.2	-42%
N/C(=N\OC(=O)c1cccc([N+](=O)[O-])c1)c1cccnc1	-4%	21%	1	-1.2%	-22	7.2	7%[15.4 µM]
Cc1cc(C(=O)Nc2ccon2)cs1	9%	22%	-8	0.6%	10	1.2	-18%
O=C(COC(=O)c1ccc(F)cc1F)NCCNC(=O)COC(=O)c1ccc(F)cc1F	14%	4%	-11	-3.5%	1	/	-24%
O=C(OCC(=O)c1c[nH]c2ccccc12)c1cc(S(=O)(=O)N2CCOCC2)ccc1F	-1%	/	4	0.0%	7	/	26%
O=C(OCC(=O)N1CCN(C(=O)c2ccco2)CC1)c1cc(-c2cccc(Br)c2)nc2ccccc12	-28%	-5%	-8	?	-15	0.7	-1%
Cc1ccc(CNC(=O)CCCn2c(=O)[nH]c3ccccc3c2=O)cc1	-5%	8%	-3	?	-6	0.8	-24%
CCN(CC)S(=O)(=O)c1cc(C(=O)OC(C)C(=O)NCc2ccco2)ccc1C (stereo not given)	-27%	/	-21	-0.3%	-12	/	?

Random draw from the library. Share with any hit: about 5.3%.
